# Screening data (PubChem BioAssay)
# GIV-Gai inh = blocks GIV peptide binding to rat Galpha-i3; P08753; Galpha-i3/FITC-GIV peptide fluorescence polarization, 90 min; hits give low values; scaled: aluminum fluoride 0%, vehicle 100%; percent of control (FP), % (test concentration not listed); 0.42% of 210,000 active; AID 1224905;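 active = replicate mean at 85% of control or lower, very high polarization wells dropped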;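 note: wells of about 15 µL received 100 nL stock; the first replicate is given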
# Target sequence (P08753 whole entry, looked up): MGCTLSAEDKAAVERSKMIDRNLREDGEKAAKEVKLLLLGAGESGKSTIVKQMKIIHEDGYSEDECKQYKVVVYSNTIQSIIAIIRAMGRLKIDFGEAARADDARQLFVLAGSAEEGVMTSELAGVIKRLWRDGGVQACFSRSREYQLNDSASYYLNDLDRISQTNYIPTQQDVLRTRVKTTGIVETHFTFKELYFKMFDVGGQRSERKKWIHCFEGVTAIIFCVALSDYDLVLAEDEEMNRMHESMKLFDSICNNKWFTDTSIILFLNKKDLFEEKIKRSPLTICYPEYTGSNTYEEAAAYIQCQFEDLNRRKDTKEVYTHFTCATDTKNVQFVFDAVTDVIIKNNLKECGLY
# Sa growth 42C = inhibitors of Staphylococcus aureus growth at 42 °C | relative growth, % (test concentration not listed) | AID 720641 | S. aureus RN4220 growth, OD600, 20 h; hits give low values | 0.53% of 170,000 active;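 active = growth at 42 °C up to 50% and 20 or more points under that at 30 °C, or under 10% at both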;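 note: 300 nL library stock went into each well; scaled to the means of positive and negative controls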
# HCMV NEC inh = disrupts HCMV UL50-UL53 complex binding. HTRF UL50-UL53 interaction, normalized percent inhibition. inhibition, % (test concentration not listed). 0.15% of 190,000 active;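 active = both replicates at 50% or more, plus weaker picks with an unusually low signal ratio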;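 note: stock transfer was 100 nL into about 20 µL; 0% = negative control wells and 100% = wells with untagged competitor protein; inactives centre near -12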
# Sa growth 42C second temp = recorded beside Sa growth 42C, whose call it bears; relative growth, %; measured here: growth at 30 °C;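 optical density after 20 h as mean of two plates; 100% = untreated growth and lower means inhibition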
# Numbers without * were called inactive; · = not tested or not shown. Rows were taken by chance; about 0.8% have a hit in one of these screens.
SMILES,GIV-Gai inh,Sa growth 42C,Sa growth 42C second temp,HCMV NEC inh
O=C(Nc1ccc(N2CCC(N3CCCCC3)CC2)c(C(=O)O)c1)c1ccccc1,98.4,108.8,89.2,·
Cc1ccc(Cl)cc1NC(=O)Nc1nnc(N(C)Cc2ccccc2)s1,97.0,88.1,86.9,9.4
CC1CCN(C(=O)c2csc(S(=O)(=O)N3CCCCC3C)c2)CC1 (configuration not stated),107.9,·,·,-3.4
CCOC(=O)c1cc(S(=O)(=O)NCc2ccc(OC)cc2)[nH]n1,100.3,82.6,80.6,·
Cc1ccc(CCNC(=O)C2CCCN(Cc3nc(-c4cccc(Cl)c4)oc3C)C2)cc1 (configuration not stated),104.0,106.4,92.5,-21.6
O=C1NC(=S)S/C1=C/c1ccc(-c2ccc3c(c2)C(=O)NC3=O)o1,·,91.5,82.8,-98.3
CC1CN(c2ccc(NS(=O)(=O)c3ccccc3)cc2C(=O)O)CC(C)O1 (configuration not stated),103.7,91.8,83.6,-30.3
CCOC(=O)c1csc(-c2ncc(C(F)(F)F)cc2Cl)n1,99.4,100.8,92.3,-2.6
Cc1ccc(C(=O)Nc2nonc2C)cc1,98.6,85.4,94.8,4.3
COC(=O)c1ccc(COc2ccc(NC(C)=O)cc2)o1,102.3,83.4,86.8,-10.4
COc1ccc(/C=C2\SC(=N)N(c3ccc4c(c3)OCO4)C2=O)cc1OC,106.6,·,·,-26.7
CCOC(=O)c1cnc(C(F)(F)F)nc1Oc1ccccc1,93.8,88.6,112.1,2.6
O=C(O)/C=C/C(=O)N1CC=C(c2ccccc2)CC1,110.0,94.3,76.9,·
CCn1c(CN2CCN(C)CC2)nc2cc(NC(=O)c3cc(OC)c(OC)c(OC)c3)ccc21,103.3,105.5,85.0,-2.9
CCCCOC(=O)c1ccc(NC(=O)/C(C#N)=C/c2ccc(C)o2)cc1,101.8,94.8,87.6,-55.8
O=C(Nc1ccccc1Cl)c1ccc2nncn2c1,109.4,·,·,-33.9
Cc1ccc(S(=O)(=O)NC(=O)NC2CC(C)(C)NC(C)(C)C2)cc1,·,96.5,85.8,-8.7
CC1(C)CC(NC(=O)c2scc3c2OCCO3)CC(C)(C)N1,99.6,103.4,90.6,-20.9
COc1cc(C2C(C(=O)Nc3ccccc3C)=C(C)Nc3nc(SCc4cc(C)ccc4C)nn32)ccc1O (configuration not stated),104.9,117.9,77.6,·
Cc1ccc(-n2nnc3c(SCC(=O)Nc4cc(C)on4)ncnc32)cc1,105.4,82.8,88.1,-34.8
O=C(CNC(=S)N(Cc1ccccc1)Cc1ccccc1F)N1CCCC1,97.2,92.4,88.1,·
CC1(C)CCCC(C)(C)N1Sc1ccccc1,·,83.2,80.3,11.3
O=C(CSCc1nc2cccnc2n1C1CCCCC1)NCc1cccc(Cl)c1,113.2,102.2,109.4,·
O=C(O)CCc1nn2c(nc3ccccc32)[nH]c1=O,·,105.5,95.5,-1.2
Clc1nccc2nc(N3CCCCCC3)ncc12,104.4,78.2,29.3,13.9
Cc1cc(NC(=O)CSC2=Nc3ccccc3CS2)no1,·,95.7,77.5,-12.3
COc1ccc(NS(=O)(=O)c2cn(C)cn2)cc1,102.3,98.6,93.2,-2.4
N#Cc1ccncc1Sc1ccc(Cl)cc1,96.1,·,·,-23.5
CCOc1cc(C(=O)NCCc2csc(-c3ccc(C)cc3)n2)cc(OCC)c1OCC,95.2,74.3,78.5,·
CCOc1cc(C(=O)NC2CCCCC2C)cc(OCC)c1OCC (configuration not stated),·,87.8,94.6,-7.6
Cc1cc(Nc2ccccc2)n2nc(-c3cccnc3)nc2n1,174.2,·,·,-14.5
Cc1cc(O)c(NC(=O)c2ccccc2Cl)cc1C,103.9,100.0,99.7,-4.9
CCOC(=O)c1cccc(NC(=O)CCOc2ccccc2)c1,97.2,110.5,78.6,·
O=C(c1ccc(CSc2nc3ccncc3n2Cc2ccccc2F)cc1)N1CCCCCC1,99.4,123.8,78.2,-3.5
CC1(C(=O)NC2CCCC2)Cn2c(cc3sccc32)C(=O)N1Cc1ccc2c(c1)OCO2 (configuration not stated),94.4,·,·,-3.8
O=c1c2ccccc2nc2c(-c3nc(-c4ccccc4)no3)cccn12,117.6,·,·,-27.1
CCOC(=O)c1c(C)c(C)c(C)[nH]c1=S,104.3,89.4,82.3,-14.2
Cc1oc(-c2ccno2)cc1S(=O)(=O)N(C)Cc1ccccc1,99.8,·,·,-17.2
Cc1ccc(Cl)cc1NC(=O)CSc1nc2ccccc2c2nc(-c3ccccc3)nn12,107.0,97.5,96.0,·
CC(OC(=O)C1(c2cccc(F)c2)CCCC1)C(N)=O (configuration not stated),·,87.3,94.4,-33.9
CC1Cc2cc(S(=O)(=O)CCC(=O)NCCc3ccccc3)ccc2N1C(=O)C1CC1 (configuration not stated),106.6,·,·,-4.5
COc1ccc(N2CCN(C(=O)COCc3cc(-c4ccc5c(c4)OCO5)on3)CC2)cc1,103.5,104.7,87.9,·
CCOC(=O)c1c2n(c3ccc(O)cc13)CCC2,97.4,94.8,76.5,-16.0
C=CCN1C(=O)/C(=c2\sc3n(c2=O)C(c2ccc(OC)cc2)C(C(=O)OCC)=C(C)N=3)c2ccccc21 (configuration not stated),103.8,·,·,-17.5
CN(C)Cc1ccc(CNCc2ccccc2OC(F)F)cc1,·,75.7,93.8,-24.3
CN(C)c1cccc(-c2nc(-c3cccc(NC(=O)Nc4ccccc4)c3)no2)c1,101.8,·,·,-23.7
O=C(COC(=O)C1CC(=O)N(CCc2ccc(Cl)cc2)C1)c1ccc(Cl)cc1 (configuration not stated),·,102.5,89.8,-4.9
N#C/C(=C(/O)CN1CCCC1)c1nc(-c2ccccc2)cs1,·,102.4,92.9,-37.7
CCC(=O)Nc1sc2c(c1C#N)CCCC2,95.0,79.9,95.1,-0.1
Cc1cccc(N(C)C(=O)CCS(=O)(=O)c2ccc3c(c2)SC(C)C(=O)N3)c1 (configuration not stated),112.6,115.1,89.8,·
O=C(N/N=C/c1ccccc1)C1COc2ccccc2O1 (configuration not stated),99.0,106.5,94.7,-12.7
COc1ccc(CCNc2nc(C)nc3sc4c(c23)CCCC4)cc1OC,107.6,·,·,-5.1
COC(=O)c1ccsc1N1C(=O)c2ccccc2C1=O,100.2,86.0,83.5,-33.7
COCCNC(=O)CN1CCN(c2cc(C(=O)O)c3cc(NC(=O)C4CCCC4)ccc3n2)CC1,106.2,·,·,-17.3
CC(C)N(C(=O)Cn1cc(SCC(=O)N2CCOCC2)c2ccccc21)C(C)C,101.2,98.6,94.0,-7.5
CCOC(=O)c1c(C)oc2ncnc(N3CCN(c4ccccc4F)CC3)c12,100.7,91.0,84.8,·
O=C(c1noc2c1COc1ccccc1-2)N1CCCCC1,97.7,·,·,1.5
Cc1occc1-c1n[nH]c(=O)o1,99.0,78.7,89.0,-16.5
CCCNC(=O)Cn1c2c(c(=O)n3ncnc13)CCC2,98.4,·,·,-22.8
Cc1ccc(CNC(=O)Cn2ncc3c([nH]c4ccc(C)cc43)c2=O)cc1,105.9,89.8,89.3,·

# Next results follow:
SMILES,GIV-Gai inh,Sa growth 42C,Sa growth 42C second temp,HCMV NEC inh
CCOc1ccc(NC(=O)Cn2c(=O)n(CCCC(=O)NCCc3ccc(Cl)cc3)c(=O)c3ccccc32)cc1,108.9,87.3,95.0,·
CC1=C(C)OC(C)(C(=O)/C=C/c2ccccc2)CC1 (configuration not stated),102.4,114.3,109.0,-5.7
COc1ccc(OC)c(S(=O)(=O)N2CCc3ccccc32)c1,98.6,100.3,90.8,·
N#CCc1nc(-c2cc3cc(Br)ccc3oc2=O)cs1,·,90.2,92.9,-6.5
CCc1ccccc1N1C(=N)SC2CS(=O)(=O)CC21 (configuration not stated),95.5,89.0,89.3,-9.8
CCOC(=O)C(C)Sc1nnc2ccc3ccccc3n12 (configuration not stated),101.8,98.7,81.3,-30.5
COc1cc(Cc2ccc(N)c(OC)c2)ccc1N,102.4,121.8,91.1,-12.1
N/C(=N\OC(=O)Cc1cccs1)c1ccccc1,104.5,98.0,69.7,-7.8
O=C(OCC1OC2C(Oc3nc(=O)ccn32)C1O)c1ccccc1 (configuration not stated),·,101.1,98.2,2.3
Cc1cc(SCC(=O)Nc2ccccc2)c2ccccc2n1,·,95.5,83.7,12.7
CCOc1ccc(NC(=O)C2CC2)cc1,99.4,109.1,97.0,-4.2
O=C(CN1C(=O)S/C(=C\c2cccs2)C1=O)Nc1ccc(-c2nnc3n2CCCCC3)cc1,·,99.6,102.6,-28.7
CCCCNC(=O)Cn1cc(C(F)(F)F)ccc1=O,·,89.9,86.9,-20.7
Cc1cc(-c2nn(C)c(=O)c3ccccc23)cc(C)c1O,96.8,76.0,85.9,-20.0
OC1CCCN(CC(O)COc2ccc3ccccc3c2)C1 (configuration not stated),·,97.5,90.4,-15.3
Oc1ccc(/C=N/NC(=S)Nc2cccnc2)cc1,·,96.4,92.9,-31.6
N#CSc1ccc(N2CCOCC2)cc1,·,104.8,48.1,-22.8
CCOC(=O)C1CCCN(c2nc3c(S(=O)(=O)c4ccccc4)nnn3c3ccccc23)C1 (configuration not stated),101.3,90.1,85.2,-25.0
O=C(/C=C/c1ccccc1Cl)N1CCCCC1,100.9,95.0,81.8,·
CN1CCN(C(=O)CNC(=O)C23CC4CC(CC(C4)C2)C3)CC1,·,71.2,89.0,-15.9
COc1ccc(-c2cc(C(F)(F)F)nc(SCCC(=O)Nc3ccccc3)n2)cc1,100.9,98.6,80.8,·
CC(C)(C)OC(=O)N1CCC(C(=O)OCc2ccc(C#N)cc2)CC1,·,90.8,97.0,-20.5
Cc1ccc(C(=O)Nc2c(-c3ccccc3)nc3ccccn23)cc1,102.5,109.8,89.1,3.3
Cc1cc(C)c2nc(NCCNC(=O)C3CCCCC3)c(C#N)cc2c1,96.8,84.2,86.9,-20.5
CCNC(=S)Nc1ccccc1,102.2,109.8,96.1,-0.6
CCc1ccc(OCC(=O)Nc2ccc(-c3nc4ncccc4o3)cc2)cc1,100.7,108.6,95.0,-16.5
CC(C)CC(=O)Nc1c(C(=O)N2CCN(c3ccccc3F)CC2)oc2ccccc12,102.8,129.7,102.9,-2.6
CCCn1c(SC(C)C(=O)c2ccc(NS(C)(=O)=O)cc2)n[nH]c1=O (configuration not stated),·,100.4,99.0,-4.9
CCOc1ccc(-c2nc(CSCC(=O)NCc3ccc(C)cc3)c(C)o2)cc1,97.3,99.6,81.0,·
O=C(CCC1=NS(=O)(=O)c2ccccc2N1)NC1CCN(Cc2ccccc2)CC1,106.2,·,·,4.4
O=C(O)c1cn(Cc2ccccc2Cl)c2ccc(S(=O)(=O)N3CCOCC3)cc2c1=O,103.5,85.6,66.8,-4.5
COc1ccc(-c2cc(C(=O)Oc3ccc(C)c(C)c3)no2)cc1,101.8,·,·,-10.5
COc1cc(C2CSc3nc4sc5c(c4c(=O)n32)CCCC5)cc(Cl)c1O (configuration not stated),·,81.9,94.3,11.7
CCOc1ccc(CCNC(=O)c2ccc3c(c2)sc2nc(-c4cccc(OC)c4)cn23)cc1OCC,104.0,·,·,-12.5
[N-]=C=N[n+]1ccc2ccccc2c1C(=O)c1ccc(Cl)cc1,96.0,89.5,87.5,-37.5
CCOC(=O)c1cccc(NC(=O)c2cc3c(=O)[nH]c4ccccc4c3s2)c1,96.9,107.1,91.8,1.2
CCN1CCN(CCCNC(=O)Cn2c(-c3cccs3)cc3ccccc32)CC1,108.5,112.5,106.7,·
CCN(C(=O)c1cn(C)c(=O)c2cc(OC)c(OC)cc12)c1ccc(F)cc1,104.7,83.8,85.1,-32.6
Cc1c(Cl)cccc1NC1=NS(=O)(=O)c2ccccc21,·,97.9,93.4,6.6
Cc1ccc(C(=O)N2CC(=O)Nc3ccc(Cl)cc3C2c2ccccc2)cc1 (configuration not stated),99.4,·,·,-5.7
Cc1cccc(N2CCN(C(=O)c3ccc4c(c3)N(Cc3cccc(Cl)c3)C(=O)c3ccccc3S4=O)CC2C)c1 (configuration not stated),105.4,145.4,96.3,·
CN(C)CC(=O)Nc1ccc(S(N)(=O)=O)cc1,·,106.4,101.9,17.8
